From PubChem BioAssay
Rce1 inhib – yeast Rce1p protease inhibitors, primary screen, biochemical, fluorescence, cell-free homogeneous | yeast membranes, quenched prenylated peptide cleavage fluorescence | calls only | CAAX prenyl protease 2 (Saccharomyces cerevisiae (strain ATCC 204508 / S288c)), Q03530 | 290,000 compounds, 0.27% hits;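 active = fall in fluorescence gain of 50% or more versus controls, with final raw signal at or below 3038400; inconclusive = same 50% fall but final raw signal above 3038400; inactive = fall in fluorescence gain under 50%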;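 note: plate controls were neutral control wells for no effect and wells lacking membranes for full effect; tested at 10 µM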
CSC inhib – cancer stem cell viability inhibitors, primary screen, luminescence; cancer stem cell-like cells viability; inhibition, % at 7.5 µM; 300,000 compounds, 1.1% hits; AID 2717, 2010;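 active = mean at 75% or more and at least half the replicates too; inconclusive = mean and replicates disagree; tested in HMLE shEcad cells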;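 note: 0% = median of negative and 100% = median of positive control wells; the first replicate is given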
MT1-MMP act inh – blockers of MT1-MMP proenzyme processing, primary screen, HT1080 RFP-PRO-GFP cells, GFP/RFP fluorescence; Matrix metalloproteinase-14 (Homo sapiens), P50281; GFP/RFP ratio fluorescence, overnight; percent of plate control window, DMSO zero; GFP/RFP ratio change, % at 20 µM; 360,000 compounds, 0.061% hits; AID 651647, 2012;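 active = GFP/RFP ratio change of at least 30% with cell ATP level not reduced by more than half and red fluorescence within 50% of control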; note: strong numbers were not always called active
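system = RFP-PRO-GFP reporter HT1080 cells | dosing = 20 µM single dose, 1% DMSO | timing = overnight cell settling, then overnight compound exposure, 37 °C, 5% CO2 | read-out basis = GFP/RFP fluorescence ratio | controls = DMSO and RFP-L50D-GFP cell wells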
HIV Env fusion – inhibitors of HIV-1 Env-driven cell-cell fusion, primary screen, HeLa-JRFL effector, CEM21 target cells, luciferase; inhibition, % at 12.3 µM; 360,000 compounds, 1.1% hits; AID 651610, 2012;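 active = mean replicate inhibition score of at least 50 and every replicate individually at or above 50; inconclusive = only one of the two criteria met; inactive = mean below 50 and not all replicates reaching 50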;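 note: 0% = plate neutral controls and 100% = maraviroc near 300 nM; one replicate is shown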
UUG fidelity – modulators of yeast start codon fidelity, primary screen, whole organism, S. cerevisiae, single point, plate reader; S. cerevisiae UUG-firefly luciferase reporter, luminescence/redox ratio; activity score, % at 18.7 µM; 350,000 compounds, 0.13% hits; AID 602363, 2012;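 active = replicate mean at a twofold rise or more, about +100% in these data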;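 note: firefly luciferase made from a UUG start codon reports start codon fidelity; reporter light over untreated wells divided by growth signal over untreated wells; some hits fall short of that in this replicate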
PABP polyA inh – PABP poly(A) RNA binding inhibitors, primary screen, biochemical, fluorescence polarization, uHTS | Polyadenylate-binding protein 1 (Homo sapiens), P11940 | 290,000 compounds, 1% hits | inhibition, % at 35 µM;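 active = 50% or more with normal probe brightness, or confirmed in later tests; inconclusive = above 50% with abnormal brightness, or retests that disagree; inactive = below 50% or failed in later tests; about a fifth of its hits are not listed in these tables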;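 note: calls also rest on retests at 20 µM and on dose response follow-up; controls were probe without protein and protein plus probe with vehicle; some compounds called inactive have numbers as strong as hits; many hits fall short of the cut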
Target sequence (P11940 whole entry, looked up): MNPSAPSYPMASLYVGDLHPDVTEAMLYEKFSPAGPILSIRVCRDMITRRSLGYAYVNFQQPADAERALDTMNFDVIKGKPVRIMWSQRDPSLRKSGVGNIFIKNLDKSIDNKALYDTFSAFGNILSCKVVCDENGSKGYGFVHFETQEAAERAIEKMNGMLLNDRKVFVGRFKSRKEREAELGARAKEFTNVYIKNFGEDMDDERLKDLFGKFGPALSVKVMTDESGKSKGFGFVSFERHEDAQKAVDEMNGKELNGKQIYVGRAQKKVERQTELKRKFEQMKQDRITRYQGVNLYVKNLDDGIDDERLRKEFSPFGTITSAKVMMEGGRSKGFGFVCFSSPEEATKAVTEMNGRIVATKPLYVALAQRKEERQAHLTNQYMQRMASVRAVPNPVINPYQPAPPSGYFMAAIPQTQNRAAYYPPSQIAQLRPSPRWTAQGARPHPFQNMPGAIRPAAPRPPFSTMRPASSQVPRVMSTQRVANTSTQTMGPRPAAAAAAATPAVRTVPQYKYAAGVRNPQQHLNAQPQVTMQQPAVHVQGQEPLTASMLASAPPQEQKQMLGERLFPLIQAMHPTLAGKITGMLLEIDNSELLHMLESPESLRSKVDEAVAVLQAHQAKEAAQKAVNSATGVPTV
eIF4H inh – human eIF4H binding inhibitors, primary screen, translation initiation inhibitor project, biochemical, uHTS, fluorescence polarization | inhibition, % at 35 µM | AID 2012, 2009 | 290,000 compounds, 0.94% hits | Eukaryotic translation initiation factor 4H (Homo sapiens), Q15056 | eIF4H fluorescence polarization binding assay;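 active = 50% or more with normal probe brightness, or confirmed in later tests; inconclusive = above 50% with abnormal brightness, or retests that disagree; inactive = below 50% or failed in later tests; about a fifth of its hits are not listed in these tables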;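 note: calls also rest on retests at 20 µM and on dose response follow-up; 0% = protein and probe with vehicle and 100% = probe without protein; strong numbers were not always called active; many hits fall short of the cut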
eIF4H inh retest – recorded beside eIF4H inh, whose call it bears; inhibition, %; compound at 20 µM; confirmation average;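 mean of two retest wells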
PABP polyA inh retest – second read-out of PABP polyA inh, no call of its own (marks repeat the call); inhibition, %; compound at 20 µM; confirmation repeats;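 mean of two retest wells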
MT1-MMP act inh RFP – recorded beside MT1-MMP act inh, whose call it bears; RFP signal change, %; measured here: RFP expression control read;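 0 = vehicle wells; hits needed this value within 50% of zero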
The depositor's hits bear a star; i = inactive; ? = inconclusive; / = not tested or not shown; + = active, no number; & = joins results of further samples. These rows are one share of the data; rates above refer to the full screens.

SMILES	Rce1 inhib	CSC inhib	MT1-MMP act inh	MT1-MMP act inh RFP	HIV Env fusion	UUG fidelity	PABP polyA inh	eIF4H inh	others
Cc1ccc(C(=O)CSc2nnc(COc3cccc4cccnc34)o2)cc1	i	6	5	2	23	-10	-7	67	eIF4H inh retest=0;PABP polyA inh retest=7
O=C(NCCc1ccncc1)c1ccccc1F	i	-7	1	3	-30	-10	-1	2
O=C(NN=Cc1cccc([N+](=O)[O-])c1)c1cc(-c2cccnc2)nc2ccccc12	/	-18	-4	-5	/	-23	/	/
CC1CN=C(N(C(=O)Nc2ccccc2)C(C)C)S1 (stereo not given)	i	-4	-1	1	-33	6	-2	-1
Cc1ccc(SCc2ccc(C(=O)NCc3ccncc3)cc2)cc1	i	14	-13	-21	/	-21	7	-24
CCOC(=O)C1(Cc2cccc(OC)c2)CCCN(C(=O)c2ccc(OC)o2)C1 (stereo not given)	i	-12	-4	-1	-18	21	0	-4
O=C(CSCC(=O)NC1CC1)Nc1ccccc1	i	-11	3	1	-21	-12	-13	-6
O=C(NCc1ccc(F)cc1)c1ccc(N2CCOCC2)c([N+](=O)[O-])c1	i	-29	1	-1	-46	-22	-9	-12
CCOc1ccc(/C=N/n2c(-c3ccccc3)n[nH]c2=S)cc1	/	0	2	-6	21	-13	-3	8
NC(=S)NNC(=O)Nc1cccc(Cl)c1	i	11	4	7	-14	/	-1	-1
COc1ccc(Nc2cc(Cl)nc(N)n2)cc1	i	/	1	-4	8	/	-2	-8
COc1ccc([C@@H]2CC=C(C(=O)O)[C@H](c3ccc(F)cc3)N2S(=O)(=O)c2ccccc2C)cc1	/	-3	-6	0	-43	-2	/	/
CCOC(=O)Nc1ccc2c(c1)N(C(=O)OC)c1ccccc1CC2	i	33	-4	-10	-302	/	4	-5
CCOC(=O)c1c(NC(=O)CCN2CCOCC2)sc2c1CC(C)(C)OC2	i	4	-1	1	29	/	-7	4
CCN(Cc1ccncc1)C(=O)c1cccc(S(=O)(=O)N2CCCCC2)c1	/	-24	-4	-3	/	-3	/	/
C/C=C/C(=O)OCC(=O)Nc1cccc(S(=O)(=O)NC2=NCCCCC2)c1	i	-12	4	4	0	/	-13	0
CCN1C(=O)[C@H]2[C@@H](c3ccc(OC)cc3)N3C(=O)CN(CCOC)C(=O)[C@@]3(C)[C@H]2C1=O	i	-6	3	1	17	-2	-1	4
COC(=O)CNC(=O)CCc1nnc(C2(c3ccc(Cl)cc3)CCC2)o1	i	-17	-1	3	-3	/	9	-4
Cc1ccc(-n2c(Cc3cccn3C)nnc2SCC(=O)Nc2nnc(C)s2)cc1	i	-6	3	3	-4	-8	7	5
COC(=O)CN1CC(=O)N(c2ccccc2)C1=S	i	-16	3	6	8	1	-9	-3
CC(Sc1nccn1C)C(=O)Nc1ccc(Cl)cn1 (stereo not given)	i	-9	2	5	/	-17	/	/
O=C(O)Cn1c(SCCOc2ccc(Cl)cc2)nc2ccccc21	i	-3	1	3	-9	-16	2	-4
O=C(Nc1nccs1)c1ccc(-c2ccc(F)c(Cl)c2)o1	i	17	4	1	-43	-26	4	-4
Cc1ccc2nc(-c3ccccc3)cc(C(=O)O)c2c1	/	-8	3	6	-54	-10	21	6
CC(C)Oc1ccc(OCCn2c(=S)[nH]c3c(N)ncnc32)cc1	i	-5	1	-1	0	/	-1	7
COC(=O)c1cc(S(=O)(=O)NCc2cccc(Br)c2)c[nH]1	i	-18	-2	-4	-5	17	0	-10
CCOC(=O)c1cc(C(=O)OCC)c(=O)[nH]c1SCc1ccccc1	i	/	0	4	-14	11	3	6
S=c1[nH]nc(COc2ccccc2)n1/N=C/c1ccc(Cl)cc1	i	-3	4	3	23	-10	-8	5
CC(=O)N1CCc2cc(S(=O)(=O)NC3CCCCC3)ccc21	/	-9	5	-1	11	-20	-3	1
CCS(=O)(=O)N1CCC(C(=O)NCCCN2CCN(c3ccccc3F)CC2)CC1	i	4	-1	6	/	-13	7	4
CC1(C)CC(=O)C2=C(C1)Oc1ncn(CCCO)c(=N)c1C2c1ccccc1 (stereo not given)	i	-7	8	3	/	-6	-9	-5
CCOC(=O)C1=C(C)N=C2SCCC(=O)N2C1c1ccc(C(=O)OC)cc1 (stereo not given)	i	10	0	-2	/	3	-1	-4
CC(C)Cc1nnc(NC(=O)CN2C(=O)NC3(CCCCC3)C2=O)s1	i	17	-1	1	1	-20	-9	-11
O=C1N[C@@H](Cc2ccccc2)C(=O)N2[C@H]1C[C@]1([C@]34C[C@H]5C(=O)N[C@@H](Cc6ccccc6)C(=O)N5[C@H]3N(S(=O)(=O)c3ccccc3)c3ccccc34)c3ccccc3N(S(=O)(=O)c3ccccc3)[C@H]21	i	0	1	4	-19	-3	/	/
O=[N+]([O-])c1cccc(N=Cc2sc3ccccc3c2O)c1	i	-6	/	/	-6	/	1	19
CCC(=O)NC(c1cc(Cl)c2ccccc2c1O)C1CC1 (stereo not given)	/	-10	-9	1	-5	-5	/	/
Cc1cc(C)cc(CC(=O)N2CCC2(C)C(=O)NS(=O)(=O)c2ccccc2)c1 (stereo not given)	/	/	-7	2	-6	-10	/	/
Nc1[nH]n(-c2ccccc2)c(=O)c1N=Nc1ccc2c(c1)OCO2	i	113*	12	-7	-78	-10	4	-5
COc1cc(CNc2ccc(N3CCOCC3)cc2)ccc1OCC(=O)NC(C)(C)C	i	3	1	-6	23	-10	2	6
COc1cc2c(cc1OC)CN(C(=O)CSc1ccccc1C)CC2	/	-15	-3	-1	-2	-35	/	/
COc1cc(C(=O)Nc2cc(-c3cn4cccnc4n3)ccc2C)cc(OC)c1OC	?	-15	4	1	3	-14	20	-6
Cc1ccc(SCc2noc(C(=O)NCC3CCCO3)c2C(=O)O)cc1C (stereo not given)	i	12	4	2	9	-2	-7	-13
C[C@@H]1CN([C@H](C)CO)C(=O)CCCn2nncc2CO[C@@H]1CN(C)S(=O)(=O)c1ccc2c(c1)OCCCO2	/	/	2	6	-80	-6&-13	/	/
Cc1ccc(CN2C(=O)COc3cc(NS(C)(=O)=O)ccc32)cc1	/	/	-3	-6	5	3	/	/
COc1ccc(C)cc1N(C(=O)c1ccccc1F)c1nc2ccccc2s1	i	3	-14	-11	/	-7	-4	4
CCn1c(=O)c(C(=O)NCCc2ccc(Cl)cc2)c(O)c2ccccc21	i	2	2	5	5	-16	7	-6
CC(=O)Nc1ccc(-n2cnnn2)cc1	i	-16	5	1	9	/	-5	8
CCCCOC(=O)c1ccc(NC(=O)COC(=O)CN2C(=O)NC3(CCCC3)C2=O)cc1	i	-20	0	-3	-44	21	6	0
CCCC(CCC)n1[nH]c(=O)c2c(C)cc(C)nc21	i	1	2	4	/	/	-1	1
C=CCn1c(CNC(=O)c2ccco2)nnc1SCC(=O)c1ccc(OC)cc1	i	-9	-1	-2	-6	12	-4	-1

(further entries)
SMILES	Rce1 inhib	CSC inhib	MT1-MMP act inh	MT1-MMP act inh RFP	HIV Env fusion	UUG fidelity	PABP polyA inh	eIF4H inh	others
CCCN(CCC)C(=O)c1cc([N+](=O)[O-])cc2c1-c1ccc([N+](=O)[O-])cc1C2=C(C#N)C#N	i	52	/	/	-16	/	-7	-3
Cc1noc(C)c1NC(=O)N(C)C[C@H]1OCCCC[C@@H](C)Oc2ccc(NS(=O)(=O)c3ccccc3)cc2C(=O)N([C@H](C)CO)C[C@@H]1C	/	/	0	2	0	-4&6	/	/
CCN(CCCNC(=O)CCNC(=O)Cn1cnc2ccccc2c1=O)c1ccccc1	i	-5	-7	-7	/	-17	11	-1
N#Cc1cc([N+](=O)[O-])ccc1NC(=O)CSc1n[nH]c(=O)[nH]c1=O	/	-5	-3	2	1	-9	/	/
CC(=O)c1c(C)[nH]c(C(=O)OCC(=O)N2CCc3ccccc32)c1C	i	-9	1	0	-13	-6	6	5
Nc1nonc1-n1nnc(C(=O)N/N=C/c2ccccn2)c1-c1ccccc1	i	/	-2	-1	/	-18	1	-2
COC(C/C=C\C(=O)[C@H](C)OCc1ccccc1)OC	+	-6	-15	0	-94	-21	/	/
COCCOC(=O)c1c(C)oc2ccc(NS(=O)(=O)c3ccc(F)cc3)cc12	i	8	3	-2	14	9	-3	-7
COc1ccc(C(=O)COC(=O)c2cccc(-n3cnnn3)c2)c(OC)c1	i	1	-3	1	-63	-15	/	/
O=C(NCCCCc1ccccc1)c1cccc(Br)c1	i	-9	-1	-1	11	-6	4	-9
Cc1ccc(S(=O)(=O)N2CCC(C(=O)OCCOc3ccccc3)CC2)cc1C	i	-5	5	3	-5	/	/	/
CCc1nc2ccc(C(=O)N3CCN(C(C)=O)CC3)cn2c1N(CCC(C)C)CCN(C)C	/	/	-2	3	2	0	/	/
NC(=O)CC(NC(=O)Cc1cccc2ccccc12)c1ccc(NCCc2cccc(F)c2)c([N+](=O)[O-])c1 (stereo not given)	i	12	/	/	-19	1	-20	-4
O=C(NC1CCCC1)c1cccc(S(=O)(=O)Nc2ccccc2F)c1	/	8	-4	-3	3	-13	/	/
Cc1ccc(NC(=O)c2ccc(NS(=O)(=O)/C=C/c3ccccc3)cc2)nc1	i	-6	4	-2	-59	-10	-6	6
O=C(CSc1nnc(-c2ccco2)c(-c2ccco2)n1)c1ccccc1	i	-13	-4	3	-10	-1	101*	110*
O=S(=O)(Nn1cnnc1)c1ccccc1	i	2	2	5	/	-12	16	-6
COc1ccccc1N1CCN(CC(O)COc2ccc3c(c2)OCO3)CC1 (stereo not given)	i	-12	2	5	9	/	15	28
Cc1cc(=O)oc2c(CN3CCN(C)CC3)c(O)c(Cl)cc12	?	-10	-2	-1	/	0	12	-7
CCOc1cc(C)ccc1OCc1nnc(SCC(=O)c2cccc([N+](=O)[O-])c2)n1CC	i	-9	2	-6	/	/	10	6
Cc1ccc(C(=O)NCCSc2snnc2C)cc1	i	-14	-2	4	/	-35	3	-1
O=C(Nc1ccccc1C(F)(F)F)c1cc2ncc(CCCl)cn2n1	i	12	3	2	-1	/	-2	-1
O=C(N/N=C/c1cccnc1)c1ccccc1NS(=O)(=O)c1cccs1	i	-9	1	5	-1	-12	-13	-5
CC(=O)c1sc(N/N=C2\CC3CCC2(C)C3(C)C)nc1C (stereo not given)	i	12	-15	-7	5	/	4	10
Cc1ccc(Cl)cc1-c1cc(C(=O)NCc2ccccc2)[nH]n1	/	/	-1	-1	-14	6	/	/
CN(c1ccccc1)c1nc(N)c([N+](=O)[O-])c(Nc2ccccc2F)n1	i	16	-1	-3	-26	17	-8	3
Cc1cc(Br)cn2ccnc12	i	-13	5	-6	-216	-10	4	2
OCCC#Cc1ccc(CN2CCN(CCc3ccccc3)C(CCO)C2)cc1 (stereo not given)	i	-2	-1	-2	17	-3	-6	-9
Cc1nc(SCc2nc3ccccc3[nH]2)c2oc3ccc(Br)cc3c2n1	/	/	6	4	29	-21	/	/
COc1ccc(-n2nc(C(=O)NCCCN3CCCC3=O)c3c4ccccc4n(C)c3c2=O)cc1Cl	i	-11	-4	-1	/	9	8	6
